# Screens from PubChem BioAssay.
# ClpP mod: qHTS Assay for Activators of ClpP. purified B. subtilis ClpP, FRET peptide cleavage, 20 min. 340,000 compounds, 1.9% hits. Potency, µM (doses to about 57.5 µM), inactives show top-dose activity change, negative = active; active = well fitted falling curve with a large enough effect; inconclusive = small, poorly fitted or top-dose-only effect; inactive = no such curve, though single readings can be large or run the other way; further: the source files actives as falling curves though it sought activators and does not explain the sign; nearly all actives have a fitted effect of over 65% in size; many hits overshoot -100%
# Target sequence (P80244 whole entry, looked up): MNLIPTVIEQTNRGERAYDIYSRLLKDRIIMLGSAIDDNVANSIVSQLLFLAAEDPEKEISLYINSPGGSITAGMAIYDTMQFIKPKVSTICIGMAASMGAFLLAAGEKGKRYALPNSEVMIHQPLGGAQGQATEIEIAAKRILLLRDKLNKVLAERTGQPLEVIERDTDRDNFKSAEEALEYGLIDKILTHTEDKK
#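 Buffer: 100 mM Tris/HCl pH8, 100 mM KCl, 0.05% low protease BSA, 2.5% glycerol, 0.01% Tween-20. ClpP 10 microg/mL final; 20 min RT; delta FRET normalized to ADEP and DMSO controls.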
# Numbers without * were called inactive; ? = inconclusive. Potency means the concentration at half of the fitted maximal effect.
structure,ClpP mod
Fc1ccc(-c2cn3cc(Cc4ccc(Cl)cc4)sc3n2)cc1,-6.1%
CNC(=O)c1c(NC(=O)/C=C/c2ccccc2Cl)sc2c1CCC2,-0.5%
CCc1c(-c2ccccc2OC)ncn1Cc1cccc(-c2ccccc2)c1,-3.0%
CCCCCn1c(-c2cccc(C)c2)nc2ccccc21,-21%
Cc1oc(-c2ccc(C(=O)Nc3ccccc3F)cc2)nc1COc1ccccc1,-0.6%
COc1ccc(CNC(=O)CCc2c(C)nn(-c3ccc(N4CCCC4)nn3)c2C)c(OC)c1,-4.6%
O=C(CSc1nncn2c1cc1sccc12)Nc1ccc(Br)cc1F,4.8%
CCCCn1nnnc1C(c1ccccc1)N1CCN(C(C)=O)CC1 (centres undefined),0.1%
CCOC(=O)c1ccccc1NC(=O)c1cnc(N2CCOCC2)c2ccccc12,32µM*
COc1ccc(NC(=O)C(=O)NCC(c2cccnc2)N2CCc3ccccc32)cc1OC (centres undefined),0.7%

# The listing continues:
structure,ClpP mod
Cc1ccccc1NC(=O)c1ccccc1OCC(=O)Nc1ccc(Br)cc1,-9.1%
COc1ccc(-n2c3c(c(=O)[nH]c2=O)C(NC(=O)c2ccccc2Cl)(C(F)(F)F)C(=O)N3)cc1 (centres undefined),-4.2%
CCOC(=O)c1ccc(NC(=O)c2nc(SC(C)C)ncc2Cl)cc1,-3.7%
Cc1ccc(CNC(=O)c2ccc(Cn3c(=O)c4ccccc4n(CC(=O)Nc4ccc(C)cc4)c3=O)cc2)cc1,-19%
COc1ccc(NC(=O)CSc2nc(-c3ccccc3)c3ccccc3n2)cc1,-0.3%
CCc1ccccc1NC(=O)Cn1nnc(C(=O)NCc2ccccc2Cl)c1N,0.6%
O=C(Cn1cnc2onc(-c3ccc(F)cc3)c2c1=O)Nc1ccc(F)c(Cl)c1,-4.8%
O=C(COc1ccccc1C(=O)Nc1ccccc1)Nc1ccccc1Br,0.9%
COc1ccc(S(=O)(=O)Nc2ccc(-c3cn4ccsc4n3)cc2)cc1C,1.1%
CCSc1ncc(Cl)c(C(=O)Nc2c(C(=O)c3ccc(C)c(F)c3)oc3ccccc23)n1,4.0%

# Some of the entries above in a different format:
SMILES: Cc1ccc(CNC(=O)c2ccc(Cn3c(=O)c4ccccc4n(CC(=O)Nc4ccc(C)cc4)c3=O)cc2)cc1
- ClpP mod: -19%
SMILES: COc1ccc(NC(=O)C(=O)NCC(c2cccnc2)N2CCc3ccccc32)cc1OC (centres undefined)
- ClpP mod: 0.7%
SMILES: O=C(Cn1cnc2onc(-c3ccc(F)cc3)c2c1=O)Nc1ccc(F)c(Cl)c1
- ClpP mod: -4.8%
SMILES: Cc1ccccc1NC(=O)c1ccccc1OCC(=O)Nc1ccc(Br)cc1
- ClpP mod: -9.1%

# Remaining list, next part.
structure,ClpP mod
Cc1ccc(OCC(=O)Nc2ccc3[nH]c(=O)sc3c2)cc1,1.0%
COCCCNc1ncnc2c1c(-c1ccccc1)cn2-c1ccc(C)c(Cl)c1,-0.6%
CCOc1ccc(Cn2c(CNS(=O)(=O)c3cccs3)nc3cccnc32)cc1,-3.5%
O=S(=O)(c1ccc(Cl)cc1)c1nnn2c1nc(NCc1ccc3c(c1)OCO3)c1sccc12,2.6%
Nc1nc2cc3c(cc2cc1C(=O)NCc1ccc(F)cc1)OCO3,5.1%
COC(=O)c1nnn(-c2cccc(C)c2)c1N,1.3%
Cc1ccc(S(=O)(=O)N2C3CCCCC3O[C@H]2CC(=O)c2ccccc2)cc1 (some centres undefined),-4.7%
Cc1c(C(=O)NCc2ccc(Cl)cc2)sc2nc3n(c(=O)c12)CCCCC3,-3.7%
CCc1nc(C)cn1S(=O)(=O)c1ccc(Cl)c(Cl)c1OC,3.3%
Cc1ccc(C(=O)N2CCCCC2)cc1NC(=O)c1nsc2ccccc12,1.2%

# Later entries.
structure,ClpP mod
Cc1cccc(CCn2c(=O)c3ccccc3n(Cc3cccc(F)c3)c2=O)c1,-9.3%
CCOc1ccc(C(=O)NCc2nc(-c3ccc(Cl)cc3)no2)cc1OCC,-0.5%
Cc1cccc(C)c1NC(=O)CN1C(=O)c2ccccc2Sc2ncccc21,2.2%
O=C(COc1ccccc1Cl)OCc1cc(=O)n2nc(-c3cccs3)sc2n1,3.8%
CC(C)(C)C(C(=O)NCc1ccccc1)N1CCN(C(=O)C2CCCO2)CC1 (centres undefined),1.3%
CCCCCCCCCc1conc1C(=O)/C=C/c1ccco1,-0.3%
Cc1cc(C)n(-c2nnc(Nc3ccc(C(C)C)cc3)c3ccccc23)n1,-18%
COc1ccc(CNCc2c(C(=O)O)c(C)n(Cc3ccccc3C)c2C)c(OC)c1,-4.6%
O=C1CC(c2ccc(Cl)cc2)c2cc3c(cc2N1)OCCO3 (centres undefined),-1.2%
O=C(NC1CCCC1)c1ccc(CSc2nc3ccncc3n2Cc2cccc(F)c2)cc1,-5.9%

# Following part.
structure,ClpP mod
Cc1ccc(Nc2c(-c3ccc(C)s3)nc3cccc(C)n23)cc1,4.3%
CCCNC(=O)c1ccc(Cn2c(SCC(=O)NC(C)C)nc3ccccc3c2=O)cc1,-1.6%
COc1ccc(-c2cc(C(F)(F)F)nc(SCC(=O)Nc3ccc(C(C)=O)cc3)n2)cc1,?
O=C(NCc1ccccc1)c1ccc2c(c1)CCN2S(=O)(=O)c1ccccc1,-1.8%
CCOC(=O)c1cccc(NC(=O)C2=C(C)C(=O)OC23CCCCC3)c1,-1.8%
CCOc1ccc(S(=O)(=O)Nc2ccc3oc(C)c(C(=O)OC(C)C)c3c2)cc1,1.5%
CCN(c1cc(C)cc(C)c1)S(=O)(=O)c1nnc(NC(=O)c2ccccc2C)s1,-5.6%
CCc1ccc(CNC(=O)c2ccc3c(c2)nc2n3CCCCC2)cc1,-0.7%
Cc1ccc(NC(=O)c2cc3c(=O)[nH]c4ccccc4c3n2C)cc1F,-16%
Cc1cc(C)c2oc(-c3cccc(NC(=O)c4cc5ccccc5o4)c3)nc2c1,?

# (list continues)
Compound	ClpP mod
CCC(C(=O)Nc1cc(C)ccc1OC)n1nnc(C(=O)OC)c1C(=O)OC (centres undefined)	0.7%
COc1ccc(CNC(=O)c2ccc(-c3nc(CSc4ccc(C)cc4)c(C)o3)cc2)cc1OC	-1.5%
CCCCCc1cc[n+](CC(=O)c2ccccc2)cc1	0.0%
Cc1ccc(-c2nnc(SCC(=O)NC(C)(C)C)nc2-c2ccc(C)cc2)cc1	1.3%
COc1ccc(CN(C(=O)Cc2coc3ccc(C)cc23)C2CCS(=O)(=O)C2)cc1 (centres undefined)	-0.9%
Cc1ccc(OCc2nc3ccccc3n2C(C(=O)NC(C)(C)C)c2ccncc2)cc1 (centres undefined)	0.0%
Cc1ccc(-n2c(=O)c3ccc(C(=O)NCc4ccco4)cc3n(Cc3ccccc3Cl)c2=O)cc1	-1.4%
Cc1ccc(S(=O)(=O)c2nc(S(=O)(=O)c3ccc(C)cc3)c(NCCCOC(C)C)s2)cc1	-11%
CCOc1ccc(OCC)c(Nc2nc3ccc(C(=O)c4ccccc4)cc3n3cnnc23)c1	0.6%
CCc1cccc(NC(=O)c2ccc3c(c2)c(C)c(C)n3Cc2ccc(F)cc2)c1	20µM*
COc1ccc(CCNC(=O)c2cc(Nc3cc(C)cc(C)c3)nc3ccccc23)cc1OC	41%
COc1ccccc1CCNC(=O)C(=O)NCC(c1ccco1)S(=O)(=O)c1ccc(C)cc1 (centres undefined)	1.4%
O=c1[nH]c2cc3ccccc3cc2nc1-c1nnnn1C1CCCC1	1.1%
Cc1c(CCNC(=O)c2ccc(Br)o2)sc2nc(-c3ccc(Cl)cc3)nn12	-3.7%
CCOC(=O)c1c(C)oc2nc(C)nc(Nc3ccc(CC)cc3)c12	-1.7%
CSc1nc(=O)c2c(n1C)NC(=O)CC2c1cc(F)cc(F)c1 (centres undefined)	-4.7%
COc1cccc(NC(=O)c2cn(C3CCCCC3)c(=O)c3c2c2ccccc2n3C)c1	32µM*
COc1ccc(Cl)cc1NC(=O)CSc1nnc2[nH]c(=O)cc(-c3ccccc3)n12	4.4%
COc1ccc(-n2ncc(C(=O)N3CCN(c4ncccn4)CC3)c2C2CCN(C(=O)OC(C)(C)C)CC2)cc1	?
CC(=O)N1CCCc2cc(S(=O)(=O)NCc3ccc(OC(C)C)cc3)ccc21	1.1%
Cc1ccc(C2=NN(CC(=O)NCCc3ccccc3)C(=O)CC2)cc1	0.5%
CCOc1ccc(NC(=O)c2nn(C)c3c2COc2ccccc2-3)cc1	-6.8%
COc1ccc(C2c3c(oc4ccccc4c3=O)C(=O)N2c2nc(C)c(C)s2)cc1 (centres undefined)	0.6%
COc1ccccc1CNc1nc2c(S(=O)(=O)c3ccccc3)nnn2c2ccc(Cl)cc12	4.2%
CCCCOc1ccc(CN2C(=O)C(=O)c3cc(Br)cc(C)c32)cc1OC	-0.1%
CCCNC(=O)C1CCC(Cn2c(=O)c3sccc3n(CC(=O)N3CCCC3)c2=O)CC1 (centres undefined)	-0.8%
CCOC(=O)c1c(-c2ccccc2)csc1NC(=O)c1cc(-c2cccc(OC)c2)on1	-27%
CCn1c2ccccc2c2cc(CN3CCN(Cc4ccc(Br)cc4)CC3)ccc21	?
CC(=O)N1CCc2cc(S(=O)(=O)NC(Cc3ccccc3)C(=O)Nc3cccc(C)c3)ccc21 (centres undefined)	-1.0%
CCOc1ccc(NC(=O)CSc2nc3ccsc3c(=O)n2CC)cc1	0.7%

# Other results
Compound	ClpP mod
CCOC(=O)[C@]12CCCC=C1N(Cc1cccc3ccccc13)C(=O)[C@H](CC(=O)NCc1ccc(OC)c(OC)c1)C2	-7.6%
CCc1nn(Cc2c(C)cc(C)cc2C)c(=O)c2cc3cc(C)ccc3n12	-1.6%
CCOC(=O)C1=C(CS(=O)(=O)c2ccc(OC)c(Cl)c2)NC(=O)NC1c1cccc(OC)c1 (centres undefined)	0.4%
CCn1c(=O)c2sccc2n2c(CCC(=O)Nc3cc(C)cc(C)c3)nnc12	0.2%
CCOc1ccccc1CNC(=O)c1ccc2c(c1)nc1n2CCCCC1	0.1%
O=C(Nc1cccc(C(F)(F)F)c1)N1CCC(CN2CCCCCC2)CC1	0.2%
CCN1CCN(C(=O)Cn2ncc3c4ccccc4n(Cc4ccccc4)c3c2=O)CC1	4.6%
CC(=O)c1cccc(NC(=O)Cn2cnc3c2c(=O)n(C)c(=O)n3C)c1	-0.2%
Clc1ccccc1CSc1nc(NCCc2ccccc2)c2ccccc2n1	-2.6%
O=c1c2ccccc2nc2sc(Nc3cccc(C(F)(F)F)c3)nn12	-1.5%
COC(=O)c1cc(OC)c(OC)c(OC)c1NC(=O)c1cc(=O)n(C)c(=O)n1C	0.0%
Fc1ccccc1-c1ccc(-c2nc3ccc(Cl)cn3c2Nc2ccc(Cl)cc2)o1	-11%
COc1ccc(C2CC(=O)N(Cc3ccccc3C)c3c2c(C)nn3-c2nc(C)cc(C)n2)c(OC)c1 (centres undefined)	1.4%
O=C(CSCc1ccc(F)cc1)N1CCc2c([nH]c3ccccc23)C1c1ccc(Cl)cc1 (centres undefined)	-1.5%
COc1ccc(-n2nnc(-c3nc(-c4cccs4)no3)c2N)cc1	-2.1%
COc1ccc(S(=O)(=O)N2CCN(CC(=O)Nc3ccc(Cl)c(C(F)(F)F)c3)CC2)cc1	-0.3%
COc1ccc(S(=O)(=O)Nc2ccc(-c3cn4c(C)csc4n3)cc2)cc1	-1.9%
CCCCCNS(=O)(=O)c1ccc(N2CCCCS2(=O)=O)cc1	1.2%
Cc1ccc(N2CC(NC(=O)CCCc3ccccc3)CC2=O)cc1 (centres undefined)	-1.2%
Cc1oc2c(c(C)cc3oc(=O)c(CC(=O)NCCc4ccc(Cl)cc4)c(C)c32)c1C	-11%
COc1cc(OC)c(NC(=O)CN(C)S(=O)(=O)c2ccc3c(c2)CCCC(=O)N3)cc1Cl	-2.8%
COc1cccc(C2c3c(oc4cc(C)cc(C)c4c3=O)C(=O)N2CCc2ccc(OC)c(OC)c2)c1 (centres undefined)	1.5%
CC1CN(C(=O)CCC(=O)NCc2cccc(Cl)c2)c2ccccc2S1 (centres undefined)	-1.7%
CCN(C)C1CN(Cc2cn(Cc3cc(C)cc(C)c3)nn2)S(=O)(=O)C1 (centres undefined)	-3.6%
Cc1sc2c(c1C)c(=O)n(-c1ccccc1)c(=O)n2CC(=O)c1ccc(Cl)cc1	-5.3%
CCOC(=O)[C@]12CCCC=C1N(Cc1ccc3c(c1)OCO3)C(=O)[C@H](CC(=O)NCCCOC)C2	0.9%
CCOC(=O)c1c(Nc2ccccc2)nnc(-c2ccccc2)c1-c1ccccc1	1.4%
CCN(C(=O)C1CCN(S(=O)(=O)c2ccc3c(c2)CCCN3C(C)=O)CC1)c1cccc(C)c1	0.7%
COc1ccc(NC(=O)Cn2c(=O)n(CCC(=O)NCCc3ccc(OC)c(OC)c3)c(=O)c3ccccc32)cc1Cl	?
COC(=O)c1cc2oc(C)cc2n1Cc1cc(C)ccc1C	-21%
COc1ccc2c(c1)c1c(c(=O)n(CCc3ccccc3)c(=O)n1Cc1ccc(Cl)cc1)n2C	?
CCc1ccc(NC(=O)Cn2c3ncccc3c(=O)n2-c2ccc(C)c(C)c2)cc1	4.4%

# Four entries from above, ordered by number of heavy atoms, lowest first:
Compound	ClpP mod
CCOc1ccc(NC(=O)c2nn(C)c3c2COc2ccccc2-3)cc1	-6.8%
Clc1ccccc1CSc1nc(NCCc2ccccc2)c2ccccc2n1	-2.6%
CCOc1ccc(Cn2c(CNS(=O)(=O)c3cccs3)nc3cccnc32)cc1	-3.5%
CCOC(=O)[C@]12CCCC=C1N(Cc1ccc3c(c1)OCO3)C(=O)[C@H](CC(=O)NCCCOC)C2	0.9%

# An excerpt (hit frequency here may not be typical).
